# High-throughput results as filed in PubChem.
# Menin-MLL FL inh – displaces fluorescein MLL peptide from human menin; 290,000 tested, under 10 active; AID 1766; FP activity change, % at 61.4 µM; Fluorescence polarization, fluorescein-MLL peptide displacement from menin; inconclusive = falling polarisation curve, or a change in total fluorescence; inactive = total fluorescence flat and polarisation flat or rising; no compound was filed as active; the % refers to the polarisation; negative = inhibition;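 further: % of control where 0% means no effect; inhibitors lower the polarisation; unlabelled MLL peptide was the positive control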
# gsp antag – gsp mutant antagonism; gsp-mutant cells, cAMP HTRF, 30 min; control for the full effect not named in the record; Potency, µM (highest dose often 76.9 µM), for the others: at the highest dose activity change, negative = inhibition, usual class: inhibitors; 0.4% of 340,000 active; AID 624288; active = falling curve of any shape with a large fitted effect; inconclusive = falling curve, mostly with a smaller effect; inactive = flat or rising curve; cell line not stated here;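 further: intracellular cAMP measured with PDE inhibitor Ro 20-1724 present during compound exposure; potency means the concentration at half of the fitted maximal effect; on the % scale 0 is the no-effect control and ±100 the full control effect; nearly all actives have a fitted effect of over 65% in size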
#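 HTRF cAMP measurement after 30 min RT detection following 30 min, 37C compound treatment alongside […] (added as 300 uM solution) in G418-selected cells seeded at 2000/well and grown 16–24 h.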
# gsp ag – activates gsp, the McCune-Albright syndrome mutation; gsp mutant cells, cAMP HTRF, 30 min; control for the full effect not named in the record; Potency, µM (titrated, usually from 76.9 µM), for the others: top-dose activation (cAMP increase), hits mostly activators; 0.13% of 340,000 active; AID 624287; active = well fitted activation curve with a large enough effect; inconclusive = small, poorly fitted or top-dose-only effect, or another doubt; inactive = no such curve, though single readings can be large or run the other way; cell line not stated here;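 further: phosphodiesterase inhibitor Ro 20-1724 added with compounds to block cAMP breakdown; potency means the concentration at half of the fitted maximal effect; nearly all actives have a fitted effect of over 60% in size; about a fifth of the inactives were tested at one dose only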
#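 Cells stably selected in G418 were plated at 2000/well, grown 16-24 hr, then given compounds in DMSO with the PDE inhibitor […] (300 uM solution added) for 30 min at 37C; cAMP was read by HTRF.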
# TRPML1 inh – inhibitors of human TRPML1 channel | Q9GZU1 | 0.02% of 390,000 active | activity change, negative = inhibition, % (concentration not given with the values) | TRPML1-inducible cells, Ca2+ dye fluorescence, FDSS; active compounds read low; inhibition of EC80 agonist-evoked calcium signal; in the data active means activity change below about -50%; inconclusive means about -30% to -50%; inactive means above about -30%;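 further: stimulus is agonist 54-4 at its EC80 concentration; on the % scale 0 is the no-effect control and ±100 the full control effect; the text of the record puts the active cut at -80%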
# Target sequence (Q9GZU1 whole entry, looked up): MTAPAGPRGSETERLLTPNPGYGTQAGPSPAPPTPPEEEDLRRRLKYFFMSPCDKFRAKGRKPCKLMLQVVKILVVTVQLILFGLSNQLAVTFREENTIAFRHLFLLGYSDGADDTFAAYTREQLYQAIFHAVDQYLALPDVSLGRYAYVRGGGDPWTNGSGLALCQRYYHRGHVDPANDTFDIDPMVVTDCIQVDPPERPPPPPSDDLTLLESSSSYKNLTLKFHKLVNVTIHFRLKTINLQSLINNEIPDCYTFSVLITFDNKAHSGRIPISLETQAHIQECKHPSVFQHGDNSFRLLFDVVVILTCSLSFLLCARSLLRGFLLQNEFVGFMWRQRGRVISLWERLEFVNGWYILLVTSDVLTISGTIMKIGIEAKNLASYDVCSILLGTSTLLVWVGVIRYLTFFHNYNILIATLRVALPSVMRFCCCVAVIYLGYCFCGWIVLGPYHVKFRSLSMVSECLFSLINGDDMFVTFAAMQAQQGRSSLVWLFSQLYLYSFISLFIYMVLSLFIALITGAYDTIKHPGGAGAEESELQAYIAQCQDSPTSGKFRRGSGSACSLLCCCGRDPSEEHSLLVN
#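 Calcium fluorescence in TRPML1-DL cells induced overnight with Tet: a 110 s read after compound pin addition, then a 110 s antagonist read after challenge with 54-4 at 4 uM final (EC80).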
# TRPML1 agonist – agonists of human TRPML1 channel; AID 624414; Q9GZU1; activation, % (no concentration beside the values); TRPML1-expressing cells, Ca2+ dye fluorescence, FDSS; host cell line not named in the record; reference of the full effect not given here; 0.12% of 410,000 active; in the data active = activation above about 50%; inconclusive = about 30% to 50%; inactive = below about 30%; further: 0% is about no effect; the text of the record puts the active cut at 80%
#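 Tet-induced TRPML1-DL cells, 1,500 per well, cultured overnight, were loaded with a no-wash Ca2+ dye for 45–90 min. Calcium fluorescence was recorded on the FDSS for 110 s after compound addition, before the EC80 agonist (4 uM 54-4) was added.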
# ClpP mod – qHTS Assay for Activators of ClpP | Potency, µM (doses to about 57.5 µM), for the others: top-dose activity change, negative = active | ATP-dependent Clp protease proteolytic subunit (Bacillus subtilis (strain 168)), P80244 | AID 651965, 2013 | 1.9% of 340,000 active | purified B. subtilis ClpP, FRET peptide cleavage, 20 min; active = well fitted falling curve with a large enough effect; inconclusive = small, poorly fitted or top-dose-only effect; inactive = no such curve, though single readings can be large or run the other way; further: potency means the concentration at half of the fitted maximal effect; the source files actives as falling curves though it sought activators and does not explain the sign; nearly all actives have a fitted effect of over 65% in size; many hits overshoot -100%
# Target sequence (P80244 whole entry, looked up): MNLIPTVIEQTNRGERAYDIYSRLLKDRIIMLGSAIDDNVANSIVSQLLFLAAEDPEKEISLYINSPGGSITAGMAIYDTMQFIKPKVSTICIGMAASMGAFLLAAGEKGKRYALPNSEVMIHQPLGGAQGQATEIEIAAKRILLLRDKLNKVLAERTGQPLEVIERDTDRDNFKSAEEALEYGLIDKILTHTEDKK
#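 FRET quenching reversal measured ClpP activation: 10 microg/mL B. subtilis ClpP at pH 8 with the FRET-FV decapeptide, read at 430 nm after 320 nm excitation. The 20-min minus 0-min signal was scaled between DMSO/no-enzyme wells and ADEP (5.8 microM final).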
# * hit, by the source's call; u = inconclusive; x = no result given; & = joins results of further samples; [ ] = another dose, or the depositor's remark.
compound	TRPML1 inh	gsp antag	gsp ag	Menin-MLL FL inh	TRPML1 agonist	ClpP mod
CSc1ccc(/C=N/NC(=O)CNc2ccc3ccccc3c2)cc1	12	-8%	11%[15.4 µM]	3.2	3.0	x
COc1ccc(/C=C/c2nc(C#N)c(NCCc3ccccc3)o2)cc1OC	u	x	x	x	1.5	4.0%
CCn1c(=O)c(CCC(=O)N2CCN(c3ccccn3)CC2)c(C)c2c(C)nn(-c3cccc(C)c3)c21	-10	6%	5%	x	0.1	-24%
C#CC(C)(C)NC(=O)c1ccc(-c2ccccc2F)cc1	3	-10%	-3%[15.4 µM]	1.3	-0.4	-3.9%
CN(CC(=O)Nc1ccc(F)c(F)c1F)C(=O)CCN1C(=O)C2CCCCC2C1=O (configuration not stated)	-15	19%	3%	x	-0.3	1.2%
CCOc1cccc2cc(C(=O)N3CCc4ccccc43)c(=O)oc12	-3	-6%	u	1.2	0.5	0.2%
Cc1ccc(SCc2cc(=O)[nH]c(SCC(=O)Nc3cc(Cl)ccc3Cl)n2)cc1	7	-14%	-12%	0.4	-0.1	x
COc1ccc(CNC(=O)CN(C(=O)c2snc(C(N)=O)c2N)c2ccc(F)cc2)cc1	-3	-5%	-1%[15.4 µM]	-0.2	-0.5	x
COC(=O)c1ccc(NS(=O)(=O)NC(=O)c2c[nH]c3ccccc23)cc1	-3	11%	7%	x	-0.1	0.2%
COc1ccccc1N1CCN(C(=O)CN(CCc2ccccc2)S(C)(=O)=O)CC1	-11	-16%	-4%	-2.5	0.5	2.3%
O=S(=O)(NCCc1csc(-c2ccc(F)cc2)n1)c1ccc(F)cc1F	-4	x	x	x	1.4	-15%
CCCCNC(=O)CSc1cc(=O)n(C)c2ccccc12	-7	-16%	0%	-3.7	-1.2	-15%

# Going on with the list.
compound	TRPML1 inh	gsp antag	gsp ag	Menin-MLL FL inh	TRPML1 agonist	ClpP mod
COc1cc(C2NC(=O)C(C#N)=C(Nc3cccc(C)c3)S2)ccc1O (configuration not stated)	-6	3%	-26%	4.6&-0.2	-0.5	-5.0%
CCOC(=O)c1cc(-c2ccc(OC)cc2)n(CCC(=O)NC2CCC(C)CC2)c1C (configuration not stated)	43	x	x	x	2.7	1.0%
CCOC(=O)[C@@H]1[C@H]2COc3cc(OC)ccc3[C@@H]2N2C(=O)N(c3ccc(OC)cc3)C(=O)[C@]12C	-7	2%	-9%	0.6	0.3	1.3%
Nc1nc(COC(=O)CCC(=O)c2ccccc2)nc(Nc2ccccc2)n1	11	4%	2%[15.4 µM]	x	-0.6	x
CCOc1cc(/C=N/n2cnnc2)ccc1OCC(=O)Nc1ccccc1OC	60	-13%	-29%	1.5	0.1	u
CCN1C(=O)[C@H]2[C@@H](c3ccc(-c4cc(C(C)=O)cs4)cc3)N3CCCC[C@@]3(C(=O)OC)[C@H]2C1=O	4	-8%	16%	x	-0.1	-24%
O=C(COC(=O)CCC1CCCC1)Nc1nc2c(F)c(F)c(F)cc2s1	-8	3%	16%	10	0.6	x
CCOC(=O)C(CC)Sc1nnc2[nH]c(=O)cc(C)n12 (configuration not stated)	-7	x	x	x	0.1	-10%
O=S(=O)(c1ccccc1)c1nc(-c2cccs2)oc1NCc1cccnc1	44	-16%	-1%[15.4 µM]	x	2.7	1.4%
CCc1ccc(-c2cc(C)no2)cc1S(=O)(=O)Nc1cc(C)ccn1	-7	-6%	u	x	-0.5	-9.0%
Cc1cc(C)c2cc(C(c3nnnn3CC3CCCO3)N3CCN4CCCC4C3)c(=O)[nH]c2c1 (configuration not stated)	5	7%	u	8.1	0.5	u
Cc1ccc(N2C(=O)C(CC(=O)Nc3ccc(F)cc3)N(Cc3ccc4c(c3)OCO4)C2=O)cc1 (configuration not stated)	u	x	x	x	0.4	0.6%

# Next section:
compound	TRPML1 inh	gsp antag	gsp ag	Menin-MLL FL inh	TRPML1 agonist	ClpP mod
CCCN1C(=O)c2ccc(C(=O)Nc3nccs3)cc2C1=O	-5	-13%	-8%	9.4	0.0	0.2%
O=C(O)c1cc(-c2ccccc2)nn1Cc1ccccc1	27	x	x	x	0.2	1.1%
CCOC(=O)c1cc(C)n(Cc2ccc(OCC)c(OC)c2)c1C	7	-32%	-24%	-2.7	4.3	-1.2%
Cc1ccc2nc(NC(=O)c3ccc(OCC4CCCO4)cc3)sc2c1 (configuration not stated)	-8	u	13%[15.4 µM]	5.3	0.6	x
O=C(Nc1ccc(CN2CCOCC2)cc1)c1cc2ccccn2n1	29	-5%	25%	4.0	-0.7	-0.3%
CC(=O)Nc1ccc(NC(=O)c2ccc(N(Cc3ccccc3C)S(C)(=O)=O)cc2)cc1	-10	-4%	-15%	x	0.5	x
CC(NC(=O)COC(=O)C1CCN(c2ccc(C(F)(F)F)cn2)CC1)c1ccccc1 (configuration not stated)	-3	x	-50%[inhibitor]	x	1.6	-28%
COc1cc(OC)c(OC)cc1CNCCNC(=O)c1ccco1	19	-6%	-24%[15.4 µM]	-0.7	1.6	x
Cc1ccc(NC(=O)C2OCCc3ccccc32)cc1C (configuration not stated)	-8	-15%	22%[15.4 µM]	-1.0	-1.0	x
Cc1ccc(CN2CCSc3ccc(C(=O)Nc4ccc(C)cc4)cc32)cc1	8	x	x	x	0.0	u
CCOC(=O)C(Cc1ccc(NC(=O)/C(=C\c2ccccc2)NC(=O)c2ccccc2)cc1)N1C(=O)c2ccccc2C1=O (configuration not stated)	-3	-4%	17%	0.7	1.5	-2.4%
Cc1cc(C)c(C#N)c(SCc2ccccc2)n1	-2	-10%	-19%	-2.0	0.5	-1.8%

# (more compounds)
compound	TRPML1 inh	gsp antag	gsp ag	Menin-MLL FL inh	TRPML1 agonist	ClpP mod
CN(C)C(CNC(=O)C1CCCN1C(=O)c1cccs1)c1ccccc1 (configuration not stated)	6	-11%	-44%[inhibitor]	x	-0.2	x
CCSc1ccccc1C(=O)NCc1ccco1	-1	10%	u	-0.5	-0.9	-2.5%
COc1ccc(Nc2cc(C(=O)NCCCN(C)Cc3ccccc3)c3ccccc3n2)cc1	-7	x	x	x	0.5	33%
O=C(NCCS(=O)(=O)N1CCN(c2ccccc2)CC1)c1cccc(F)c1	12	8%	5%[15.4 µM]	x	0.6	x
COc1cc(C2Nc3cccc4cccc(c34)N2)ccc1O	-12	0%	0%[15.4 µM]	3.4	-0.4	-0.3%
Cc1ccc(S(=O)(=O)NCC(=O)OCC(=O)c2ccc(S(=O)(=O)N3CCCCC3)cc2)cc1C	-2	-1%	-23%	x	-0.5	0.0%
CCCC(=O)Nc1ccc2c(c1)nc(CN1CCCCC1)n2C	3	11%	1%	4.7	-0.8	-0.6%
CN(C(=O)COC(=O)CNC(=O)CNC(=O)c1ccc(Cl)cc1Cl)c1ccccc1	2	x	6%[15.4 µM]	0.3	-0.3	x
CN(CC(=O)Nc1ccc(F)c(F)c1F)C(=O)CCCSc1nc2ccccc2[nH]1	13	11%	-32%[inhibitor]	x	0.0	-1.2%
Cc1c(C(=O)N2CCC(C)CC2)c(S(=O)(=O)Nc2ccc(OC(F)(F)F)cc2)c(C)n1C	-2	x	x	x	1.1	1.6%
COC(=O)Nc1cccn(Cc2c(Cl)cccc2Cl)c1=O	1	8%	17%	2.7	-0.1	u
O=C(N/N=C/c1ccc([N+](=O)[O-])cc1)c1[nH]ncc1Br	-2	x	-25%[15.4 µM]	-0.2	1.3	x

# Carrying on:
compound	TRPML1 inh	gsp antag	gsp ag	Menin-MLL FL inh	TRPML1 agonist	ClpP mod
OC1(c2ccc3c(c2)OCO3)CCN(Cc2ccccn2)CC1	14	11%	-10%	2.5	0.8	-1.9%
COc1cccc2cc(C(=O)Nc3ccc(CC(=O)O)cc3)c(=O)oc12	-20	x	x	x	1.4	0.6%
CCOC(=O)c1sc(=S)n(-c2ccc(C)cc2)c1SC	3	-12%	-6%	-3.0	0.1	0.8%
CC1CN=C(c2cccn2Cc2ccc(F)cc2Cl)O1 (configuration not stated)	-4	-22%	-26%	2.4	4.0	1.5%
O=C(NCC1CCCO1)c1ccccc1S(=O)(=O)c1ccc([N+](=O)[O-])cc1 (configuration not stated)	-3	5%	11%[15.4 µM]	-0.5	1.7	x
CCCOc1ccc(C(=O)NCCc2ccccc2)cc1	-3	1%	-5%	0.6	1.0	x
Nn1c(SCC(=O)Nc2cccc(Br)c2)nnc1C1CC1	-2	-4%	-35%	x	-0.5	0.9%
Cc1ccc(NC(=O)CNCc2cccs2)cc1Br	-11	-8%	u	-6.8	0.5	x
CCCCN(C(=O)c1ccccc1Br)C1CCS(=O)(=O)C1 (configuration not stated)	7	10%	-34%[inhibitor]	x	-0.3	-2.3%
Fc1cccc(CCN2C(=S)NC[C@@H]2CC2CCCCC2)c1	42	-9%	u	0.3	2.4	0.1%
COc1ccc(CCNc2ncnc3c2cnn3-c2cccc(Cl)c2)cc1	-8	x	x	x	0.7	u
Cc1ccc2nc(NC(=O)c3nc(SCc4ccccc4C)ncc3Cl)sc2c1	-8	x	x	x	-0.2	1.9%

# Carrying on:
compound	TRPML1 inh	gsp antag	gsp ag	Menin-MLL FL inh	TRPML1 agonist	ClpP mod
COc1cc([N+](=O)[O-])ccc1NC(=O)C[n+]1cccc(C)c1	-3	10%	-13%	2.7	-0.3	1.5%
COc1ccc(NC(C)=O)cc1NC(C)C(=O)Nc1ccc(S(=O)(=O)N2CCCCC2)cc1 (configuration not stated)	1	-4%	1%	x	-0.1	-1.5%
CC(CSc1nnnn1-c1ccccc1)Cn1c(N2CCCC2)nc2c1c(=O)[nH]c(=O)n2C (configuration not stated)	18	19%	-31%[inhibitor]	-0.4	0.5	0.8%
Cc1cc2cc(C)c(NCCNC(=O)c3ccccc3F)nc2cc1C	3	8%	-5%[15.4 µM]	0.2	-0.2	x
CN(C)c1ccc(C(=O)OCC(=O)N2CCOCC2)cc1	3	9%	1%[15.4 µM]	1.0	-1.2	x
COC(=O)c1cc2sc(C)cc2n1CC(=O)Nc1ccc(C)cc1Cl	3	x	x	x	0.9	-1.4%
COc1cccc(CSc2nc3nc(C)cc(C)n3n2)c1	x	7%	-17%	0.6	x	-2.2%
CC1CCc2c(C(=O)NCc3cccnc3)csc2C1 (configuration not stated)	2	-3%	0%	5.9	-1.5	-3.3%
Cc1ccc2c(c1)C(O)(CC(=O)/C=C/C=C/c1ccccc1)C(=O)N2 (configuration not stated)	0	-5%	0%	0.6	-0.4	-1.7%
COc1cc(Br)cc(Br)c1OCC(=O)N/N=C/c1c(C)n(C)n(-c2ccccc2)c1=O	7	2%	23%	x	-0.2	0.8%
CCN(CC)S(=O)(=O)c1ccc(N=Nc2c(N)[nH]c(=O)[nH]c2=O)cc1	-18	9%	-19%[15.4 µM]	1.7	0.0	x
CC(Sc1nnc(Cc2cccs2)n1C1CCCCC1)C(=O)N1CCc2ccccc21 (configuration not stated)	3	-23%	12%	1.5	2.7	-2.0%
